Compound activity as filed in PubChem BioAssay.
ugtP null kill = kills S. aureus RN4220 lacking UgtP; 330,000 tested, 0.54% active; S. aureus RN4220 ugtP deletion, OD600 growth, 16 h; some inactives read as strong as hits; growth inhibition, % (test concentration not listed);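 active means z-score under -3 and OD600 up to 0.15 on both plates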;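 further: plate controls were untreated wells for no effect and antibiotic for full effect; wells of about 80 µL received 100 nL stock; the first replicate is given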
Mtb hypoxia rep = inhibitors of hypoxia-regulated fluorescent reporter in Mycobacterium tuberculosis; fluorescence inhibition, % (concentration not given with the values); M. tuberculosis hypoxia-regulated fluorescent reporter, fluorescence; 300,000 tested, 0.1% active;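 active means 35 to 45% if threefold the growth effect, above 45% if 1.5-fold the growth effect; inactive means the rest, general growth blockers included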;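 further: wells of about 50 µL received 100 nL stock; 0% = vehicle wells and 100% = reference inhibitor wells; whole bacteria with a GFP reporter of the hypoxia response; strong numbers were not always called active; many hits fall short of the cut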
PrP UTR inh = suppresses PrP 5' UTR mRNA reporter expression. cell-based PrP 5' UTR mRNA reporter, plate reader. inhibition, % (test concentration not listed). 340,000 tested, 0.35% active. AID 488862;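 active means every replicate at 50% or more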;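 further: 0 = median of the neutral control wells; tested in H4 reporter cells; numbers are from one replicate; inactives centre near -14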
BJeLR lethal = BJeLR cell viability loss; AID 1554; 300,000 tested, 0.17% active; BJeLR (HRASV12) viability, CellTiter-Glo ATP luminescence, 48 h; reference of the scale not given here; inhibition, % (test concentration not listed);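 active means replicate mean above 50%; inconclusive means above 50% but judged a plate artefact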;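 further: 50 nL library stock added to about 25 µL; numbers are from one replicate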
Autofluor counter = compound fluorescence in toxin protease inhibitor counterscreen; compound autofluorescence counterscreen, microsphere flow cytometry; hits give high values; fluorescence intensity (no concentration beside the values); 360,000 tested, 3.1% active; AID 624483;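 active means at least 3 SD above the mean of all compounds, about 16000 in these data; inconclusive means too few beads counted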;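 further: 100 nL of 1 mM stock went into each well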
RN4220 kill = kills Staphylococcus aureus RN4220; 330,000 tested, 0.33% active; S. aureus RN4220 growth, OD600, 16 h; inhibition, % (concentration not given with the values);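 active means z-score of -3 or lower and OD600 up to 0.18 on both plates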;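 further: plate controls were untreated cells for no effect and reference antibiotic for full effect; stock transfer was 100 nL into about 80 µL; one replicate is shown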
Mtb hypoxia rep growth = recorded beside Mtb hypoxia rep, whose call it bears; growth inhibition, %; measured here: M. tuberculosis growth (absorbance);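 0% = vehicle and 100% = reference antibiotic; read after six days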
Starred values were filed as active, the others as inactive; ? = inconclusive; · = not tested or not shown.

Second line of a record – ugtP null kill	Mtb hypoxia rep	Mtb hypoxia rep growth	PrP UTR inh	BJeLR lethal	Autofluor counter	RN4220 kill
1) CCN(CC)c1ccc(N=CN2CCOCC2)cc1
    10	17	14	-11	-4	2300	6.6
2) Cc1cc(C)cc(-n2ncc3c2CCCC3NC(=O)c2cc(C)n(C)n2)c1 (configuration not stated)
    -2	-5	7	-5	7	5343	1.2
3) COc1ccc(NC(=O)c2cncc(Br)c2)cc1S(=O)(=O)N1CCCCC1
    10	9	4	-19	7	2171	3.2
4) COCCNC(=S)Nc1ccc2nsnc2c1
    ·	·	·	-17	4	10653	·
5) COc1ccccc1COC(=O)Nc1c(C)nn(C)c1Cl
    -3	2	12	-38	5	18871*	7.7
6) CN(C)c1ccc(CNCCC(Cc2ccccc2)c2ccco2)cc1 (configuration not stated)
    9	12	13	-5	6	4444	0.6
7) Cc1cc(C=Nn2cnnc2)c(C)n1-c1ccc2c(c1)OCO2
    -1	7	4	·	·	·	4.2
8) COc1ccccc1-n1c(=O)c(C#N)c(-c2ccc([N+](=O)[O-])cc2)c2cc(C(=O)c3cc(F)ccc3O)cnc21
    -5	-2	-2	7	1	3670	-1.2
9) COc1ccccc1C=NNc1ccccc1[N+](=O)[O-]
    -28	8	13	·	·	·	0.7
10) CCCCc1n[nH]c(=S)n1Cc1ccc(Cl)cc1
    8	12	14	-4	-8	2531	5.2
11) O=S(=O)(c1ccc(F)c(F)c1F)N1CCN(C(=S)NCc2ccccc2)CC1
    1	20	5	-15	-4	3144	2.5
12) CCOC(=O)CSCC(=O)Nc1cc(C)ccc1C
    1	5	16	-10	-21	26149*	1.1
13) O=C(N/N=C/c1c[nH]c2ccccc12)c1cccc(Cl)c1
    ·	·	·	-43	1	3867	·
14) CC(C)(CCC(=S)N1CCOCC1)C1CCCCC1
    ·	·	·	-25	2	4265	·
15) Cc1ccc(C(=O)Nc2ccccc2C(N)=O)o1
    4	2	-5	-33	-7	4251	4.7
16) COc1ccc(C(C#N)c2ccc(=O)[nH]n2)cc1 (configuration not stated)
    5	4	3	-61	0	2131	3.4
17) CCCCn1c(N)c(N(Cc2ccccc2OC)C(=O)CC2OC(=O)c3ccccc32)c(=O)[nH]c1=O (configuration not stated)
    3	3	3	-37	2	6422	-0.4
18) COc1ccc(NC(=O)CSc2nnc(-c3ccccc3)n2Cc2ccco2)cc1OC
    1	7	7	-35	-4	10638	0.6
19) COC(=O)c1ccc(/C=C2\Oc3ccccc3NC2=O)cc1
    1	-1	5	-40	10	3571	5.4
20) COc1ccc(CNC(=O)C2=CC(c3ccc(C)cc3)=NS(=O)(=O)N2C)cc1
    -4	-6	-2	-31	3	5810	3.5
21) FC(F)(F)c1cccc(NCc2cn3cccnc3n2)c1
    3	7	7	-24	5	2847	3.2
22) COc1ccccc1OCCCCCCN1CCN(C)CC1
    7	9	5	-8	-2	5244	0.8
23) COc1cc2c(cc1OC)C(NC(=O)C(F)(F)F)CNC2=O (configuration not stated)
    2	4	1	20	-12	3302	0.8
24) Cc1cc(NC(=O)CCCn2nc([N+](=O)[O-])cc2C)no1
    -5	-10	2	-30	7	5404	-1.3
25) C[C@@H]1C(c2ccccc2)=NN(c2ccc(Br)cc2)[C@H]1C(=O)N1CCOC1=O
    28	5	-1	-15	·	3526	-11
26) O=C1C2CCCC1C(N1CCCCC1)CC2 (configuration not stated)
    11	-5	-8	8	3	·	6.1
27) CCOC(=O)c1ccc(NC(=O)COc2ccc(CNC3CCCCC3)cc2OC)cc1
    -10	12	6	-7	4	4218	3.6
28) CCC(CC)NC(=O)Nc1ccc(F)cc1F
    15	2	12	-15	1	2501	2.2
29) COc1ccc(C)cc1NC(=O)CCC(=O)Nc1ccc2nc(N3CCN(C)CC3)cc(C)c2c1
    -5	6	8	·	11	·	8.4
30) Cc1ccc(NC(=O)N2CCC(NC(=O)c3cccc(F)c3)CC2)cc1
    8	-3	4	-15	-3	3758	0.1

Gathered by group, those above with two or more sulfur atoms (2)
Second line of a record – ugtP null kill	Mtb hypoxia rep	Mtb hypoxia rep growth	PrP UTR inh	BJeLR lethal	Autofluor counter	RN4220 kill
4) COCCNC(=S)Nc1ccc2nsnc2c1
    ·	·	·	-17	4	10653	·
11) O=S(=O)(c1ccc(F)c(F)c1F)N1CCN(C(=S)NCc2ccccc2)CC1
    1	20	5	-15	-4	3144	2.5

Next section:
Second line of a record – ugtP null kill	Mtb hypoxia rep	Mtb hypoxia rep growth	PrP UTR inh	BJeLR lethal	Autofluor counter	RN4220 kill
31) CC(C)(C)OC(=O)NCCc1nnc(SCc2c(Cl)cccc2Cl)o1
    12	7	0	-4	4	?	8.6
32) Cc1c(C(=O)N(C)C2CCCCC2)sc2ncnc(N3CCN(c4ccccc4F)CC3)c12
    -15	4	3	-4	3	6455	-6.4
33) Cc1cc(Nc2ccc(N3CCOCC3)cc2)c2cccc(C)c2n1
    17	4	0	-11	4	4572	1.4
34) CCOC(=O)C1CCN(C(=O)COC(=O)C2CCN(S(=O)(=O)c3ccc4c(c3)OCCO4)CC2)CC1
    8	7	0	-5	4	4022	5.0
35) Nc1nc(N)c2[nH]c(=S)[nH]c2n1
    3	15	11	-15	·	2913	1.1
36) CCc1nnc(NC(=O)CSc2nnc(CCc3nc4ccccc4[nH]3)n2C)s1
    2	-5	-4	-11	4	10314	-1.2
37) CN(C(=O)c1ccc(NC(=O)Cc2cccc(NC(=O)C3CCCN(S(=O)(=O)c4cccc([N+](=O)[O-])c4)C3)c2)cc1)C1CC1 (configuration not stated)
    6	-2	3	-21	·	3891	3.6
38) NC(=N[N+](=O)[O-])N1CCN(C(=O)OC2CCCC2)CC1
    7	15	3	·	·	·	0.6
39) COc1ccc2[nH]c3c(c2c1)CCN1C(=O)C(CC(=O)NCCCN(C)C)C[C@H](C(=O)N2CCCCC2)[C@@]31C (some centres not stated)
    4	-10	6	-16	·	4095	3.1
40) COc1ccc(N(C)S(=O)(=O)c2ccc3c(c2)CC(C)N3C(=O)C2CC2)c(OC)c1 (configuration not stated)
    -1	5	-7	0	-10	5683	9.4
41) COc1cc(-n2c(N)c(C(=O)NCc3ccco3)c3nc4ccccc4nc32)cc(OC)c1OC
    1	4	-3	-5	0	2640	-0.5
42) Nc1nc(Nc2cccc(F)c2)nc(NCCO)c1[N+](=O)[O-]
    -24	6	0	-13	-13	3614	-0.9
43) CC(=NC(C)C)C1=C(O)C(C)OC1=O (configuration not stated)
    8	3	7	-1	-1	2524	4.2
44) Cc1coc2cc3oc(=O)c(CCC(=O)NCC(=O)O)c(C)c3cc12
    5	-2	-7	16	-3	3257	3.5
45) CN(Cc1ccccc1)C(=O)CCS(=O)(=O)c1ccc2c(c1)oc(=O)n2C
    7	17	11	-19	-11	5147	1.5
46) CCCC(=O)n1nc(-c2ccc(Cl)cc2)nc1SC
    ·	·	·	-43	7	2558	·
47) Oc1ccccc1CN1CCCC(N2CCc3ccccc3C2)C1 (configuration not stated)
    10	0	4	-17	3	3651	5.6
48) CCN(CCCNS(=O)(=O)c1ccc2c(c1)CCN2C(C)=O)c1cccc(C)c1
    9	4	2	-42	13	6240	1.6
49) Cc1cccn2c(=O)c3cc(C(=O)NC4CCCC4)c(=N)n(CCc4ccccc4)c3nc12
    -2	-1	2	-10	6	4649	-0.4
50) CN(Cc1c(F)cccc1Cl)C(=O)c1ccc(NC(=O)CC2SC(N3CCCCC3)=NC2=O)cc1 (configuration not stated)
    2	-1	2	7	·	·	2.3
51) Cc1ccc(S(=O)(=O)N2CCN(C(=O)CCc3c[nH]c4ccccc34)CC2)c(C)c1
    -10	-14	0	-5	·	8884	2.2
52) Cc1cc2ccccc2nc1SCC(=O)NC1CCCC1
    2	-7	-3	-43	2	4796	3.1
53) Cc1ccc(NN=C(C#N)C(N)=S)c(C)c1
    -14	5	-3	·	·	·	-1.5
54) CCC(=O)OCCNc1cc(Sc2nc3ccccc3s2)c2nonc2c1[N+](=O)[O-]
    83	·	·	-23	-17	15341	53
55) COC(=O)Nc1ccc(S(=O)(=O)N2CCCCC2C(=O)NCc2ccco2)cc1 (configuration not stated)
    -3	5	-1	89*	7	9533	-2.4
56) Cc1sc2ncnc(NC(C)C(=O)O)c2c1C (configuration not stated)
    -5	5	15	-5	-6	4593	4.8
57) CCOc1ccc(CN(C(=O)c2cc(=O)c3cc(C)cc(C)c3o2)C2CCS(=O)(=O)C2)cc1 (configuration not stated)
    -2	1	-1	4	2	4686	-0.2
58) O=C(CNC(=O)c1ccc(Br)cc1)NC1CC1
    6	1	-5	·	·	·	5.2
59) Cc1ccc(CN2CCN(Cc3cn[nH]c3-c3ccccc3)CC2CCO)o1 (configuration not stated)
    2	-3	-3	-20	2	2473	3.5
60) CC(=O)c1coc2c1cc(O)c1ccccc12
    -1	20	13	-25	-2	9643	8.1
61) COc1ccccc1N1CCN(c2nc(C)cc(=O)[nH]2)CC1
    ·	·	·	-22	-14	4042	·
62) O=C(CSc1nnc(N2CCCC2)n1-c1ccccc1Cl)N1CCN(c2ccccn2)CC1
    13	8	5	-16	·	7841	7.6
63) O=C(c1ccccc1F)N1CCC(O)(c2cccnc2)CC1
    7	·	·	-23	-4	3361	-1.4
64) COc1cc2sc3cc(NCc4ccc(C)o4)ccc3c(=O)c2cc1OC
    -2	11	6	-39	·	3910	3.0
65) O=C1N(CCCN2C(=O)C3(OCCO3)c3ccccc32)c2ccccc2C12OCCO2
    -3	5	2	-22	1	21454*	0.5
66) Cc1cc2nc(CCN(C(=S)NCC3CCCO3)C3CCCC3)[nH]c2cc1C (configuration not stated)
    ·	·	·	45	-1	3341	·
67) COc1ccc(S(=O)(=O)N(C)C[C@H]2Oc3c(NC(=O)Cc4ccccc4)cccc3C(=O)N([C@H](C)CO)C[C@@H]2C)cc1
    1	6	9	-11	·	2994	-9.2
68) Cc1cccc(-n2c(C)cc(C=C(C#N)C#N)c2C)c1
    1	2	8	-9	9	2184	3.3
69) COc1ccc(C(c2nnnn2C(C)(C)C)N2CCN(c3nc4ccccc4s3)CC2)cc1OC (configuration not stated)
    1	·	·	-34	-5	4947	-1.0
70) Cc1cc(C(=O)NNC(=S)Nc2ccccc2C)cs1
    0	·	·	-53	-12	2366	3.6
71) COc1ccc(N(CC(=O)NC2CCCCC2)C(=O)CNC(=O)c2ccco2)cc1OC
    2	10	1	-21	-3	6618	1.8
72) OCCCn1c(CCCNc2nc(-c3cccc(Br)c3)cs2)nc2cc(Cl)c(N3CCCCC3)cc21
    -15	7	12	-7	10	4604	-5.5
73) CC(C)(C)C1CCC(=O)N(C(CC#N)Cc2ccccc2)CC1 (configuration not stated)
    2	2	3	·	·	·	-1.1
74) CCC(=O)/C=C1\Sc2ccc(OC)cc2N1CC
    10	8	5	-11	-7	?	7.1
75) COc1ccc(Oc2cccc(Cl)c2CNC(=O)CC(C)(C)CC(=O)O)cc1
    3	0	4	-7	3	3907	2.2
76) Cc1ccc(C(=O)CSc2nnc3c4ccccc4nc(C(C)(C)C)n23)cc1
    -5	11	19	-21	4	2376	-1.8
77) O=C(CNCC1CCCCC1)Nc1cccc(S(=O)(=O)N2CCOCC2)c1
    3	14	2	2	-1	4138	2.4
78) COc1ccc(NC(=O)CN2CCC(NC(=O)c3ccc(OC)cc3)CC2)cc1
    5	-2	5	3	-3	2904	2.9
79) COc1ccc(-n2c(=O)c3c4c(sc3n(CC(N)=O)c2=O)CCCCC4)cc1
    3	0	8	6	2	5741	5.7
80) O=S(=O)(Nc1ccc(O)c2ccccc12)c1cccs1
    -4	5	3	-22	3	5445	17
81) CCOc1ccc(Cl)cc1CNCCCSc1nc(C)cc(C)n1
    6	-1	0	-15	-12	3611	5.6
82) O=S(=O)(N=C(c1ccccc1)N1CCCCCC1)c1ccccc1
    13	-4	-4	·	·	·	10
83) Cc1ccccc1NC(=S)N(C)Cc1cn(C)c2ccccc12
    ·	·	·	-21	-11	10665	·
84) CC(=O)C1=C(C)N(Cc2ccccc2)C(=O)N[C@H]1c1ccco1
    ·	·	·	-3	-11	4130	·
85) Cn1cc(-c2ccc(Cl)cc2)cc(C#N)c1=O
    9	6	1	-15	-1	2462	5.9
86) COC(=O)C(C)N(c1ccc(C)cc1)S(=O)(=O)c1c(C)[nH]c(=O)[nH]c1=O (configuration not stated)
    6	8	0	-2	-2	7098	1.3
87) CCSc1nnc(NC(=O)C2C3CCC(C3)C2C(=O)O)s1 (configuration not stated)
    6	-4	-7	-10	3	2117	4.1
88) COc1ccc(Nc2ncnc3ccc(Br)cc23)cc1OC
    4	12	2	5	3	5051	3.6
